Compound activity as filed in PubChem.
Insulin prom inh: TRM-6 insulin promoter activity inhibition; inhibition, % at 2 µM; 130,000 compounds, 0.9% hits; AID 1273; TRM-6 cells (human fetal islet line), insulin promoter-eGFP reporter, imaging; reporter expression induced with tamoxifen;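 active means inhibition above the mean plus 3 SD, with well images judged a real hit on visual review, cut at about 60% in these data, passing the limit was not always enough; inconclusive means inhibition over the cutoff but images rejected on review; inactive means inhibition not above the cutoff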
GALR2 ag: agonists of human galanin receptor 2 (GALR2); 140,000 compounds, 0.48% hits; AID 803; O43603; GALR2-expressing cells, agonist activation read-out; activation, %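 (tested at 5 µM)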;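 active means above mean plus 3 SD of all compounds, about 5% in these data, not always enough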;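 further: 0% = vehicle buffer wells and 100% = reference agonist at full effect; tested in CHO reporter cells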
Target sequence (O43603 whole entry, looked up): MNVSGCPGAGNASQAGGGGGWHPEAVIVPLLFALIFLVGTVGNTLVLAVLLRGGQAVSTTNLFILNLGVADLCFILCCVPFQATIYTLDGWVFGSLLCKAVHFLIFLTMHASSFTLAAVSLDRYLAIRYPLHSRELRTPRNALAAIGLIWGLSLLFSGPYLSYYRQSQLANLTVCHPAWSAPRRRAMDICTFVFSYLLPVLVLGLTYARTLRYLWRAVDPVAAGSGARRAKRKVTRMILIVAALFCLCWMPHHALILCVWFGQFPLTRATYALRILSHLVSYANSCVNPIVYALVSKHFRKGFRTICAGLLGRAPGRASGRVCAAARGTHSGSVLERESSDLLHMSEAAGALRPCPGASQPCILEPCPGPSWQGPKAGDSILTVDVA
RGS16-Gao HTS: modulates binding between human RGS16 and Galphao. 220,000 compounds, 0.38% hits. O15492+P09471. bead-based flow cytometry RGS16-Galphao binding, fluorescence; actives lie on both sides. binding response (% of control), % at 10 µM;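 active means below 25% or above 175%, edge rows of some plates excepted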;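 further: Galphao activated by GDP with aluminum fluoride before binding; 100% = wells without compound and 0% = beads without RGS; some results beyond the cut were filed as inactive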
Target sequence (O15492 whole entry, looked up): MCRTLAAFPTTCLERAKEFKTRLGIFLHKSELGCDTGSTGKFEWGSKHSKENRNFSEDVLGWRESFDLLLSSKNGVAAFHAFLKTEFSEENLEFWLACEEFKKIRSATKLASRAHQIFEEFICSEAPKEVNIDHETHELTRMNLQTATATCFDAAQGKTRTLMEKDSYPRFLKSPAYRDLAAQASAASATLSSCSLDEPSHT
Target sequence (P09471 whole entry, looked up): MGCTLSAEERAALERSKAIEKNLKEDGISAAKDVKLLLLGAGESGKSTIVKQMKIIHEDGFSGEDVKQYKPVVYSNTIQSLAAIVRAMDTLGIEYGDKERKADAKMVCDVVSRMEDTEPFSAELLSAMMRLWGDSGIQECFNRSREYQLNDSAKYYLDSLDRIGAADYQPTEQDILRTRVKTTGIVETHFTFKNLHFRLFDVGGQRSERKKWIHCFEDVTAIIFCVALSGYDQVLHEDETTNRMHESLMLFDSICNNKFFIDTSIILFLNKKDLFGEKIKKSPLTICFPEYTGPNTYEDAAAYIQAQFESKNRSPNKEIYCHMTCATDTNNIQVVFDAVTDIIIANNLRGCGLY
HSV augment: increases HSV replication in cells; 220,000 compounds, 0.005% hits; HSV replication augmentation in cells, fold increase; maximum fold increase;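 active means peak rise of 1.5-fold or more in the series; inconclusive means self-fluorescent or not available for retest; tested in PC3 cells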;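 further: first round at 10 µM; read as green reporter fluorescence; hits show the peak of a series up to 25 µM; 1 = signal of infected wells without compound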
PKD1 kinase inh: PKD1 (human) kinase inhibition. inhibition, %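 (about 10 µM by stock and volumes)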. Q15139. PKD1 kinase fluorescence polarization assay. 200,000 compounds, 0.056% hits;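 active means inhibition of 50% or more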;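 further: controls were vehicle for no effect and a reference inhibitor for full effect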
Insulin prom inh cell count: second read-out of Insulin prom inh, no call of its own (marks repeat the call); normalized cell count, %; measured here: cell count, toxicity; reference of the scale not given here;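 cells exposed to compound for 48 h; stained nuclei by imaging scaled within each plate; lower means fewer cells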
HSV augment primary fold: second read-out of HSV augment, no call of its own (marks repeat the call); fold increase; compound at 10 µM; measured here: primary screen fold increase 10 uM; tested in PC3 cells;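 GFP signal in the first replicate; 1 = infected wells without compound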
* marks the source's active call; other numbers are inactive results; i = inactive; ? = inconclusive; nt = no result given.

SMILES	Insulin prom inh	Insulin prom inh cell count	GALR2 ag	RGS16-Gao HTS	HSV augment	HSV augment primary fold	PKD1 kinase inh
CNCCCc1[nH]nc(N)c1C#N	0	118	-1.8	108	i	1	2
S=C(NCC1CCCO1)NC12CC3CC(CC(C3)C1)C2 (stereo unspecified)	19	70	nt	102	i	0.9	-6
CC1CCCC(NCC(O)COC(c2ccc(F)cc2)c2ccc(F)cc2)C1C (stereo unspecified)	nt	nt	nt	115	i	0.59	4
CC(C)Nc1nc(NC(C)C)nc(SCCOC(=O)Nc2ccc(Cl)cc2Cl)n1	50	118	0.2	79	i	0.91	2
CCOC(=O)CNc1nc(Cl)c(C#N)s1	nt	nt	nt	102	i	1	-1
CSc1nc(C)c(C(=O)C[n+]2ccc(C)cc2)cc1C#N	nt	nt	nt	91	i	0.99	-2
COc1ccccc1Oc1c(C)oc2cc(OC(=O)c3ccco3)ccc2c1=O	41	87	1.4	102	i	0.64	-7
CCCCC(c1nnnn1CC1CCCO1)N1CCN(c2nc3ccccc3s2)CC1 (stereo unspecified)	nt	nt	-2.6	100	i	0.81	15
COc1ccc(-c2c(C#N)c(SCC(N)=O)nc3c2CCCC3)cc1	38	101	-0.9	105	i	0.97	1
CC(=O)c1cccc(NC(=O)C(OC(=O)c2cccc(S(=O)(=O)N(C)c3ccccc3)c2)c2ccccc2)c1 (stereo unspecified)	-15	94	-0.6	108	i	0.93	-1
O=C(CSc1nc(-c2ccccc2)nc2ccccc12)Nc1nccs1	0	162	-1.0	102	i	0.86	-15
CC1(C)Cc2ccccc2/C(=C/C(=O)N2CCCCCC2)N1	i	60	-1.9	107	i	1.1	-8
COc1ccc(CCNC(=O)CCC(=O)Nc2nnc(C(C)C)s2)cc1OC	-31	96	-1.3	43	i	0.97	-4
CCOC(=O)c1nnn(CC(=O)Nc2ccccc2)c1C(=O)OCC	nt	nt	nt	104	i	0.97	2
CC(C)c1ccc(N2C(=O)CC(NNC(=O)c3ccccc3Cl)C2=O)cc1 (stereo unspecified)	nt	nt	nt	98	i	0.81	nt
CC1/C(=N/O)CC(c2ccccc2)NC1c1ccccc1 (stereo unspecified)	-45	117	-2.8	131	i	0.78	-2
Cc1c(/C(O)=C2/C(=O)C(=O)N(Cc3cccnc3)C2c2ccccn2)cnn1-c1ccccc1 (stereo unspecified)	nt	nt	nt	100	i	1	4
CC(=O)N1c2ccccc2C(=O)C1N1CCCCC1 (stereo unspecified)	nt	nt	-2.2	104	i	0.89	-6
CC(C)C1C(C#N)=C(N)Oc2n[nH]c(-c3cccs3)c21 (stereo unspecified)	nt	nt	-1.2	97	i	1.1	4
COc1ccc(NC(=O)Cn2nc(Cc3cccnc3)c3ccccc3c2=O)c(OC)c1	nt	nt	nt	91	i	0.95	nt
Cn1cnc(S(=O)(=O)NCc2cccs2)c1	10	152	-2.2	100	i	0.98	-18
Cc1nc(CSc2nnc(C)s2)cs1	62*	108*	-1.8	95	i	0.86	-9
CCC(=O)Nc1nnc(C(C)(C)C)s1	-11	274	-3.7	108	i	0.8	-13
COc1ccc(N2CCN(S(=O)(=O)c3cccc4cccnc34)CC2)cc1	nt	nt	-1.8	102	i	0.75	-4
CCOc1ccc(-c2nnc(NC(=O)CCCOc3cccc(C)c3)o2)cc1	nt	nt	-0.5	101	i	0.72	-6

The listing continues.
SMILES	Insulin prom inh	Insulin prom inh cell count	GALR2 ag	RGS16-Gao HTS	HSV augment	HSV augment primary fold	PKD1 kinase inh
Cc1ccc(N=Nc2c(=O)[nH]n3c(=O)cc(C)[nH]c23)cc1	13	79	-0.8	104	i	0.85	0
O=C(Nc1ccc(F)c(F)c1)c1ccco1	7	120	nt	105	i	0.97	-1
Cc1cccc2sc(NC(=O)CN(C)S(=O)(=O)c3ccc(Br)s3)nc12	-4	77	-1.3	99	i	0.99	-9
C=CCn1c(SCc2nc3ccccc3[nH]2)nnc1-c1ccccn1	-21	152	0.6	100	i	0.87	-4
O=C1C/C(=C/NCc2ccccc2)C(=O)N1	67	86	-1.6	203	i	1	12
NCCNc1ccc2nnnn2n1	7	140	nt	115	i	0.91	3
Cc1noc(NS(=O)(=O)c2ccc(NC(=O)c3cc(-c4ccccc4Cl)nc4ccccc34)cc2)c1C	nt	nt	nt	103	i	1	3
Cc1cccc(OCC(=O)NC(=S)Nc2ccccc2N2CCOCC2)c1	27	87	-0.8	104	i	0.86	0
Cc1nnc(SC(C)C(=O)N2CCc3ccccc32)s1 (stereo unspecified)	-31	91	-3.6	80	i	0.94	-3
C[C@H](NC(=O)c1nc[nH]c1C(=O)N[C@@H](Cc1ccccc1)C(=O)OC(C)(C)C)c1ccccc1	nt	nt	nt	85	i	1.2	0
O=C(NCc1ccco1)C1Cc2ccccc2CN1S(=O)(=O)c1ccccc1F (stereo unspecified)	-125	57	-3.0	nt	nt	nt	-5
COc1ccc(CN(C)CC(=O)c2c(N)n(Cc3ccccc3)c(=O)n(C)c2=O)c(OC)c1	38	73	-2.4	93	i	0.91	-2
CCCOc1ccc(CC(=O)NCc2ccco2)cc1OC	-69	108	-1.1	104	i	0.99	8
O=C(c1cc[n+]([O-])cc1)N1CCc2c([nH]c3ccccc23)C1c1ccccc1Cl (stereo unspecified)	nt	nt	nt	92	i	0.85	-6
CC(C)=CC(=O)OCC(=O)Nc1ccc(Cl)cc1	59	100	nt	103	i	1	-1
COc1ccc(NC(=O)c2c(C(F)(F)F)nn(C)c2SCc2ccccc2)cc1	nt	nt	-0.5	98	i	0.79	-7
CCc1cccc(NC(=O)CSCc2cc(=O)[nH][nH]2)c1	4	128	-1.4	98	i	0.91	3
Cc1cc2oc(=O)cc(C)c2cc1NC(=O)CCC(=O)O	nt	nt	-1.4	99	i	1.1	-5
Cn1cc(S(=O)(=O)N2CCN(c3cccc(Cl)c3)CC2)c(=O)n(C)c1=O	nt	nt	nt	101	i	0.55	nt
Cc1ccc(S(=O)(=O)N2CCCC(C(=O)NCC3COCCO3)C2)cc1 (stereo unspecified)	61	96	-2.1	104	i	1.1	-6
CCN(CC)C(=O)c1[nH]cnc1C(=O)N[C@@H](Cc1ccccc1)C(=O)OCc1ccccc1	nt	nt	nt	98	i	0.97	3
CC(NC(=O)c1ccc(Br)cc1Br)c1ccccc1 (stereo unspecified)	nt	nt	nt	93	i	0.98	8
CC1=C(C)C(=O)N(c2ccc(C(=O)O)cc2)C1=O	-20	132	0.0	99	i	1.1	3
CC(C)N1C(=O)c2ccccc2N(Cc2ccccc2)S1(=O)=O	nt	nt	nt	104	i	1	nt
COc1ccc(-c2ccc(SCC(=O)c3cccs3)nn2)cc1OC	nt	nt	nt	104	i	0.96	-5

New compounds follow.
SMILES	Insulin prom inh	Insulin prom inh cell count	GALR2 ag	RGS16-Gao HTS	HSV augment	HSV augment primary fold	PKD1 kinase inh
COc1ccc(/C=c2\s/c(=C/C(=O)c3ccc(C)cc3)[nH]c2=O)c(OC)c1	-64	107	-0.3	94	?	nt	-4
Cc1cc(C(=O)N/N=C/c2ccc[nH]2)n[nH]1	nt	nt	-2.4	76	i	1.1	1
Cc1cccc(/C=C/C(=O)c2ccc(N3CCOCC3)cc2)c1	20	119	-1.1	81	i	1	1
O=C(N/N=C/c1cc(Br)c(Br)o1)c1cccnc1	-2	135	-1.0	92	i	1.4	-5
Cc1ccc(N2CN(Cc3ccco3)CNC2=S)c(C)c1	33	85	0.4	96	i	1.1	-4
Cc1c(Cl)cccc1NC(=O)NCc1ccc(F)cc1	nt	nt	nt	103	i	1.1	-2
COC(=O)N/N=C/c1cc(N=Nc2ccccc2Cl)ccc1O	nt	nt	nt	97	i	1.5	nt
Clc1c(-c2nnc3n2CCCCC3)sc2ccccc12	-55	52	-0.5	104	i	0.94	-2
CC(=C/c1ccccc1)/C=N/n1c(-c2ccncc2)n[nH]c1=S	53	102	nt	91	i	0.86	0
C=CCNC(=O)COc1c(C)ccc(C)c1C	nt	nt	nt	102	i	0.87	-1
CC1(C)C=C(c2ccc(C=O)s2)CC(C)(C)N1	16	144	-0.6	99	i	1	0
CCC(C)(C)c1nnc(NC(=O)c2cccc([N+](=O)[O-])c2)s1	25	90	-2.0	20*	nt	nt	10
COc1ccc(NC(=O)C2CCC(CNc3c(N4CCOCC4)c(=O)c3=O)CC2)cc1Cl (stereo unspecified)	nt	nt	nt	100	i	0.92	nt
O=C(Nc1ccccc1)c1cccnc1Nc1ccccc1	-2	139	-1.6	98	i	1	3
O=C(OC(C(=O)NCc1ccc2c(c1)OCO2)c1ccccc1F)c1ccco1 (stereo unspecified)	nt	nt	-2.6	107	i	1	-12
CCOC(=O)c1c(C)nn(-c2ccc(NC(=O)CSCC(=O)O)cc2)c1C	nt	nt	nt	103	i	1.1	nt
CCOc1ccc(/C=C(\C#N)C(=O)NCC2CCCO2)cc1OCC (stereo unspecified)	22	114	-0.7	30	i	0.89	-2
Cc1cccc(C)c1NC(=O)CN1CCNCC1	22	97	-2.2	102	i	0.9	-8
Cn1nnc(NC(=O)c2cccs2)n1	33	41	nt	106	i	0.93	-5
Cc1noc(C)c1C(=O)OCC(=O)/C=C1\N(C)c2ccccc2C1(C)C	nt	nt	-1.3	124	i	0.72	2
Cc1cccc(OCC(=O)O/N=C(\N)Cc2ccc(Cl)cc2)c1	14	120	-0.3	92	i	1.1	-1
CC(C)[C@H](Nc1ccc(C(F)(F)F)cc1[N+](=O)[O-])C(=O)O	nt	nt	nt	92	i	0.99	nt
CC(=O)c1ccc(NC(=O)CCc2c(C)nc3ncnn3c2C)cc1	44	110	-0.7	92	i	1.1	2
CCOc1ccc(NS(=O)(=O)c2ccc3[nH]c(=O)oc3c2)cc1	nt	nt	-3.6	101	i	0.8	-10
Cc1cc(C)cc(NC(=O)CSc2cc(C(=O)c3nccn3C)c3ccccc3n2)c1	14	122	-0.7	99	i	0.59	-6

More results.
SMILES	Insulin prom inh	Insulin prom inh cell count	GALR2 ag	RGS16-Gao HTS	HSV augment	HSV augment primary fold	PKD1 kinase inh
COc1ccccc1C(=O)OCCCN=C1NS(=O)(=O)c2ccccc21	-27	78	nt	98	i	1	-3
COCCCn1c(SCC(=O)Nc2ccc(C(C)=O)cc2)nc2ccccc2c1=O	-6	111	-1.6	92	i	0.86	-13
Cc1ccc(/C=C/C(=O)Nc2ccncc2)o1	25	108	1.5	94	i	1.2	1
Clc1cccc(Cl)c1CSc1nnc(/C=C/c2ccccc2)o1	41	60	0.5	102	nt	nt	14
CCN(CC(=O)NC(C)C)C(=O)[C@@H](NC(=O)c1ccco1)C(C)C	29	118	nt	102	nt	nt	2
O=C(COC(=O)c1ccc(-c2ccc([N+](=O)[O-])cc2)o1)NC(=O)NC12CC3CC(CC(C3)C1)C2	26	80	0.0	105	i	1.1	1
O=[N+]([O-])c1ccccc1/C=N/N1CCN(c2ccccn2)CC1	-49	147	-0.6	97	i	0.84	-3
CN(C)S(=O)(=O)c1ccc(Cl)c(NC(=O)COC(=O)CNC(=O)c2ccco2)c1	nt	nt	nt	101	i	0.88	1
CCCCC(=O)Nc1cc(NC(=O)CC)ccc1Cl	-21	92	0.2	100	i	1.1	-11
COc1ccccc1CNC(=O)CCCc1ccccc1	8	151	0.8	97	nt	nt	0
CC1=C(C(=O)Nc2ccccc2)C(c2cccs2)NC(=O)N1 (stereo unspecified)	-30	80	nt	98	i	1	-2
CCO/C=N/c1c(C#N)c(CC#N)nn1-c1ccccc1	15	2	-1.3	99	i	0.79	-1
O=c1[nH]c(=O)n(C2CCCCCC2)c(O)c1C=NCc1ccc(F)cc1	63	53	2.1	100	i	0.85	-5
CCOc1ccc(NC(=O)C(Cc2ccccc2)NC(=O)C2CCCCC2)cc1 (stereo unspecified)	36	114	0.3	97	i	0.87	2
CCOc1cc(N2CCOCC2)c(OCC)cc1NC1=NCCCCC1	nt	nt	-4.4	95	i	0.99	7
Cc1c(C(=O)OCc2ccccc2)nnn1-c1nonc1N	nt	nt	-0.9	98	i	0.91	1
O=C(CSc1ccc(-c2ccncc2)nn1)N1CCN(c2ccccc2)CC1	44	69	nt	99	i	1	-4

Complete entries, looked up by structure. Screens in order: Insulin prom inh	Insulin prom inh cell count	GALR2 ag	RGS16-Gao HTS	HSV augment	HSV augment primary fold	PKD1 kinase inh
COc1ccccc1CNC(=O)CCCc1ccccc1 is listed with 8	151	0.8	97	nt	nt	0
CCOc1cc(N2CCOCC2)c(OCC)cc1NC1=NCCCCC1 is listed with nt	nt	-4.4	95	i	0.99	7
COCCCn1c(SCC(=O)Nc2ccc(C(C)=O)cc2)nc2ccccc2c1=O is listed with -6	111	-1.6	92	i	0.86	-13
O=c1[nH]c(=O)n(C2CCCCCC2)c(O)c1C=NCc1ccc(F)cc1 is listed with 63	53	2.1	100	i	0.85	-5
